TSHR agonist = activates the human thyroid stimulating hormone receptor | P16473 | Potency, µM (titrated, usually from 57.1 µM), for the others: at the top dose activation, hits mostly activators | HEK293-CNG-TSHR cells (CNG channel as cAMP sensor), membrane potential dye, cAMP | 73,000 tested, 0.48% active; active = well fitted activation curve of enough size with the parental cells flat; inconclusive = any curve in the parental cells; inactive = parental cells flat and receptor cells flat or falling; also: potency is read from the fitted curve at half-maximal effect; % of control where 0% means no effect; weak receptor curves with flat parental cells got no call and are not listed
Target sequence (P16473 whole entry, looked up): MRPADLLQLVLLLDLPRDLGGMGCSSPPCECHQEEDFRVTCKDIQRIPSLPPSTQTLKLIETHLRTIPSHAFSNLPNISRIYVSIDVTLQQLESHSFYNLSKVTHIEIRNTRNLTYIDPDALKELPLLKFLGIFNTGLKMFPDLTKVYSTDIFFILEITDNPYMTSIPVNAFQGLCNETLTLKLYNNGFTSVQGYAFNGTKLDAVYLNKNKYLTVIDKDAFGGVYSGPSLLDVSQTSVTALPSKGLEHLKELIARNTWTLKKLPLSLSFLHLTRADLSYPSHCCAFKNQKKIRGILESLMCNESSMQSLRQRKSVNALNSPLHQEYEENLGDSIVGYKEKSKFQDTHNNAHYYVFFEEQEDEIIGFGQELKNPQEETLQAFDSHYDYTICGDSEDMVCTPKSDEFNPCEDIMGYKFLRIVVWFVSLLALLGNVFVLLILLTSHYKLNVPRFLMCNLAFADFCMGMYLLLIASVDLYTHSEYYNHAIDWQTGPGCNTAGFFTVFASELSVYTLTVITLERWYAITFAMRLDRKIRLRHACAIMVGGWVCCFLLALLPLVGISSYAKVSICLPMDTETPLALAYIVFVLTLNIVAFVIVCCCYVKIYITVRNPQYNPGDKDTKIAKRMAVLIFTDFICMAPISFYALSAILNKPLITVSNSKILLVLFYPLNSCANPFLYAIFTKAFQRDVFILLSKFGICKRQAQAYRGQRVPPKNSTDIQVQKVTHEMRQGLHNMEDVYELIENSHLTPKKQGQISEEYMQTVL
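HEK 293 cells stably expressing TSHR and a cAMP-gated CNG channel; parental CNG-only cells as counterscreen. Cells preloaded 60 min with membrane potential dye plus 100 uM RO 20-1724, then compound 30 min; fluorescence read at 590 nm.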
A647 autofl = compound fluoresces in the A647 spectral region | Compound fluorescence, A647 channel (570/671 nm), Tris buffer | max dye-equivalent concentration, M | 59,000 tested, under 10 active | AID 592; active means above 1 µM dye equivalent; inconclusive means 0.1 to 1 µM; inactive means 0.1 µM or less;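 also: values scaled relative to a standard on each plate; highest value over a series up to 38 µM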
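Compounds pinned into 100 mM Tris pH 8.0, 15 min at room temperature, then read with 570 nm excitation/671 nm emission filters. Fluorescence normalized to an on-plate six-point Alexa 647 standard curve, giving dye-equivalent concentration per compound concentration.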
Resorufin autofl = resorufin region autofluorescence; Compound fluorescence, resorufin region 547/598 nm, buffer; active compounds read high; max dye-equivalent concentration, M; 59,000 tested, 0.04% active; AID 588; active = above 10 nM dye equivalent; inconclusive = 1 to 10 nM; inactive = 1 nM or less; a few of its hits are not listed in these tables; also: highest value over a series up to 38 µM
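Read-out: intrinsic compound fluorescence at ex 547/em 598 nm after 15 min at RT in pH 8.0 Tris (100 mM). Values expressed as resorufin-equivalent concentration from per-plate standard series.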
A488 autofl = compound autofluorescence in A488 spectral region. compound autofluorescence, A488 spectral region, dye equivalency; active compounds read high. 59,000 tested, 0.1% active. max dye equivalency, M; active = above 10 nM dye equivalent; inconclusive = 1 to 10 nM; inactive = 1 nM or less; about half of its hits are not listed in these tables;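 also: highest value over a series up to 38 µM; compound alone in buffer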
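Spectroscopic profiling in the A488 region: compounds in pH 8.0 Tris (100 mM), 15 min RT, CCD imaging with 480 nm excitation and 540 nm emission; responses normalized against A488 dye standards.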
AID923 = qHTS Assay for Allosteric/Competitive Inhibitors of Caspase-1: Spectroscopic Profiling in AFC Spectral Region. compound fluorescence, AFC spectral region (405/520 nm); almost no hit is shown here. 75,000 tested, 1.1% active. AID 923, 2007. Potency, µM (series often up to 57.5 µM), for inactives: top-dose fluorescence increase, most hits filed as activators; active = well fitted activation curve with a large enough effect; inconclusive = small, poorly fitted or top-dose-only effect;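 also: potency is read from the fitted curve at half-maximal effect; 0% is about no effect; scaled to a free AFC standard on each plate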
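Compound autofluorescence profiled at 405 nm ex/520 nm em during kinetic caspase 1 run (50 nM enzyme, 5 uM Ac-WEHD-AFC, HEPES pH 7.5, 10 mM DTT). Titration up to 57 uM; baseline from regression intercept, normalized to AFC standard curve.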
Active calls of the source: *; i = inactive; ? = inconclusive; . = not tested or not shown; & = joins results of further samples; [ ] = another dose, or the depositor's remark. This is a subset (hit frequency here may not be typical).

Compound,TSHR agonist,A647 autofl,Resorufin autofl,A488 autofl,AID923
Cc1noc(C)c1S(=O)(=O)N1CCCC(C(=O)Nc2nccs2)C1 (configuration not stated),-9.6%,.,.,.,2.6%
COC(=O)C1(c2ccccc2)NC(c2cccs2)C2C(=O)N(C)C(=O)C21 (configuration not stated),15.0%,3.54e-08,i,i,1.6%
Cc1ccc(Cn2ccc(NC(=O)c3cc(-c4ccc(Cl)cc4)on3)n2)cc1,-3.5%,4.38e-08,i,i,0.8%
CCN1C(=O)C2(C(C#N)=C(N)Oc3n[nH]c(C(C)C)c32)c2ccccc21 (configuration not stated),13.6%,2.3e-08,i,i,-0.4%
CCOC(=O)CSC1=NC(=O)CS1,-15.1%,1e-09,i,i,9.1%
COC(=O)CCCC(=O)Nc1ccc(Cl)c(Cl)c1,-4.9%,3.23e-08,i,i,0.0%
O=c1c2ccccc2nc2n1CCc1c-2[nH]c2ccccc12,?,3.1e-09,i,i,0.9%
c1cncc(-c2csc(NCc3ccco3)n2)c1,-1.8%,.,.,.,0.5%
CCn1c(=O)n(CC(=O)NC2CCCC(C)C2C)c(=O)c2ccccc21 (configuration not stated),?,1e-09,i,i,2.3%
O=C(O)[C@H](CCc1ccccn1)c1ccccc1,1.5%[11.4 µM],1e-09,i,i,6.6%[11.5 µM]
CCC(=O)Nc1ccc2c(c1)nc(CCN1CCN(C)CC1)n2C,18.1%,1e-09,i,i,-0.3%
CCOc1ccc(NC(=O)Cn2nnc(-c3ccccc3NC(=O)CC)n2)cc1,-1.8%,3.98e-08,i,i,-0.2%
COc1ccc(Cl)cc1-c1n[nH]c(=S)o1,8.6%,1.2e-09,i,i,0.4%
O=C(CN1C(=O)NC2(CCCC2)C1=O)N1CCN(C(=O)c2ccco2)CC1,1.1%,1e-09,i,i,0.1%
O=C(NCc1ccco1)C(c1ccco1)N(CCc1ccccc1)C(=O)Cn1nnc2ccccc21 (configuration not stated),?,6.37e-08,i,i,1.1%
CSc1nc(C)cc(-n2ccc(=O)[nH]c2=O)n1,2.4%,1e-09,i,i,-4.6%
Cc1cc2oc(=O)cc(CN3CCN(Cc4ccc5c(c4)OCO5)CC3)c2cc1C,2.51µM*,7.2e-09,i,i,-0.8%
O=S(=O)(c1ccccc1)N1CCC2(CCCN(Cc3cc(C(F)(F)F)cc(C(F)(F)F)c3)C2)CC1,11.8%,7.5e-09,i,i,2.5%
Cc1c(-c2ccccc2)oc2nc3c(c(=O)n(C)c(=O)n3C)n12,3.5%,1e-09,i,i,0.0%
O=C(c1ccc(Br)o1)N1CCN(c2ccc3nnc(-c4ccccc4)n3n2)CC1,26.1%,.,.,.,-1.7%
Cc1nnc(NC(=O)CCCCCN2C(=O)C3C4C=CC(C4)C3C2=O)s1 (configuration not stated),?,.,.,.,0.3%
Cc1ccc(Cc2nc(-c3cccc(C)c3)no2)cc1,?,2.18e-08,i,i,-0.2%
CN[C@]1(C)[C@H]2CC[C@@H](C2)C1(C)C,4.9%[25.6 µM],1e-09,i,i,11.9%[25.7 µM]
Cc1onc(-c2ccccc2)c1C(=O)Nc1sc2c(c1C#N)CCC(C)C2 (configuration not stated),-12.8%,.,.,.,2.9%
COc1ccc(Cc2nn3c(-c4ccccc4OC)nnc3s2)cc1,?,1e-09,i,i,1.8%
C=CC(=O)OCCOCCOC(=O)C=C,?,.,.,.,1.9%
COc1ccc(-c2nnc(Nc3nc4c(OC)cccc4s3)o2)cc1,?,1.1e-09,i,i,-0.4%
COC(=O)c1ccc(Cl)c(NC(=O)CN(c2ccc3c(c2)OCO3)S(C)(=O)=O)c1,5.7%,1e-09,i,i,-0.8%
O=C(N/N=C\c1ccc2c(c1)CCC2)c1ccccc1O,10.5%[11.4 µM],3.8e-09,i,i,4.4%[11.5 µM]
CS(=O)(=O)N(CC(=O)Nc1ccc2c(c1)OCO2)c1ccccc1,-1.0%,3.6e-09,i,i,0.2%
O=C(O)c1ccc(COc2c(F)c(F)cc(F)c2F)o1,22.0%,1e-09,i,i,-0.3%
O=C(c1cccs1)N1CCc2ccccc21,?,.,.,.,0.7%
CCOc1ccc(Cc2nc(C)c(CC(=O)N3CCOCC3)c(=O)[nH]2)cc1,-2.3%,1e-09,i,i,-1.3%
CCCCOC(=O)C1CCCC(C(=O)OCCCC)N1 (configuration not stated),2.3%[11.4 µM],2.7e-08,i,i,-0.9%
CCOc1ccc(C2c3c(oc4cc(C)c(C)cc4c3=O)C(=O)N2CCCN2CCOCC2)cc1 (configuration not stated),12.0%,.,.,.,-2.9%
O=C(CSc1nc(-c2ccccc2)cs1)N1CCN(C(=O)c2ccco2)CC1,?,1e-09,i,i,-0.7%
Cc1nc2ccccc2c2oc(C(=O)NCC3CCCO3)cc12 (configuration not stated),-1.3%,4e-09,i,i,2.1%
C=CCn1c(=O)c2c(C)c(C)sc2n2c(Nc3ccccc3)nnc12,.,4.5e-09,i,i,0.3%
OC(CN1CCOCC1)Cn1c(-c2cccc(Cl)c2)nc2ccccc21 (configuration not stated),?,1e-09,i,i,0.8%
CN1CCC(N(C)C(=O)c2ccccc2Nc2ccc(SC(F)F)cc2)CC1,3.2%,2.53e-08,i,i,0.5%
CCCOc1ccc(N2C(=O)CC(N3CCC(O)(c4cccc(C(F)(F)F)c4)CC3)C2=O)cc1 (configuration not stated),15.2%,.,.,.,-1.5%
O=C(COC(=O)C12CC3CC(CC(C3)C1)C2)NCc1ccco1,0.794µM*,1e-09,i,i,1.2%
CCOC(=O)C1CCN(CC(=O)c2c(C)[nH]c3ccccc23)CC1,10.8%,2.8e-08,i,i,8.3%
COc1cc2nc(C3CCC3)n(NC(=O)C3CCC(OC)CC3)c(=O)c2cc1OC (configuration not stated),?,5.2e-09,i,i,1.9%
CCC(C)n1c(SCC(=O)NC(=O)Nc2ccc3c(c2)OCCO3)nc2ccccc2c1=O (configuration not stated),7.7%[11.4 µM],2e-09,i,i,0.1%
Cc1nn(S(=O)(=O)N(C)C)c(C)c1CN1C(=O)c2ccccc2C1=O,29.0%,4.88e-08,i,i,-3.0%
O=C(NCc1ccco1)C1CCN(C(=O)c2cc3sccc3n2Cc2ccc(F)cc2)CC1,20µM*,1e-09,i,i,-0.4%
CCOC(=O)c1ccc(NC(=O)CSc2nnc(-c3ccncc3)n2C)cc1,-6.3%,1e-09,i,i,-0.8%
COc1ccc([C@@H](C)c2cc3c(cc2O)OCO3)cc1,1.0%[11.4 µM],4.04e-08,i,i,-1.3%[11.5 µM]
COC(=O)c1ccccc1NC(=O)CC(NCc1ccccc1)C(=O)O (configuration not stated),1.6%,1e-09,i,i,0.2%
Cc1cc2nc(C)c(Cc3ccccc3)c(=O)n2[nH]1,-2.8%,.,.,.,2.5%
CC1(C(=O)CSc2n[nH]c(-c3ccccc3Cl)n2)CCC(=O)O1 (configuration not stated),.,2.2e-09,i,i,.
CCc1nc2oc3ccccc3c(=O)c2c(=O)n1CCOC,4.8%,1e-09,i,i,-0.3%
Cc1noc(C)c1COC(=O)Cc1ccc(Cl)cc1,6.4%,1.29e-08,i,i,-0.2%
CCN1CCN(CNC(=O)c2cnccn2)CC1,0.6%,1e-09,i,i,-0.4%
C[C@]1(C(=O)NCCc2c[nH]c3ccccc23)C=C[C@@H](Cc2ccccc2)N1C(=O)c1ccccc1,?,.,.,.,2.3%
COc1ccc(OCCSc2nnc(-c3ccoc3C)n2C)cc1,14.1%,1e-09,i,i,0.3%
COc1ccc(-c2cc(NCCc3ccncc3)n3ncnc3n2)cc1,1.1%,3.11e-08,i,i,-0.7%
Cc1ccnc(NS(=O)(=O)c2ccc(N)cc2)n1,-1.7%[25.6 µM],2.3e-09,i,i,-3.0%
N#CCCn1c(Cl)nc2ccccc21,-3.7%,1.02e-08,i,i,1.8%

Further compounds
Compound,TSHR agonist,A647 autofl,Resorufin autofl,A488 autofl,AID923
CC(=O)Nc1ccc(C(=O)N2CCN(C(=O)c3ccco3)CC2)cc1,51.6%,1e-09,i,i,0.7%
O=C1CC(Cc2ccccc2)C(=O)N1CCCn1ccnc1 (configuration not stated),-7.8%,.,.,.,-0.8%
O=C(CCCn1c(=S)[nH]c2cc3c(cc2c1=O)OCO3)N1CCN(c2ccccc2)CC1,10.3%,1e-09,i,i,-0.6%
CN(C)CCCN=C(N)N,-2.5%[11.4 µM],1e-09,i,i,1.8%[11.5 µM]
CC(=O)OCC1OC(C#Cc2ccc(Cl)cc2)C=CC1OC(C)=O (configuration not stated),6.8%&-1.8%[11.4 µM],.,.,.,2.6%&-0.9%[11.5 µM]
COC(=O)[C@@]1(Cc2ccc(F)cc2)[C@H]2c3cc(C(=O)N4CCCC4)n(CCc4c[nH]c5cc(F)ccc45)c3C[C@H]2CN1C(=O)c1ccccc1,-0.6%,.,.,.,4.8%
COc1cc(OC)c2c(C)c(Cl)c(=O)oc2c1,1.5%[11.4 µM],2.84e-08,i,i,1.1%
C=CCOc1nc2c(c(=O)n(C)c(=O)n2C)n1Cc1ccc(Cl)cc1Cl,.,6.22e-08,i,i,.
COc1cc(N2C(=O)NC3CC2(C)Oc2ccc(Br)cc23)cc(OC)c1OC (configuration not stated),-1.4%[11.4 µM],3.76e-08,i,i,0.1%
COc1cc2c(cc1OC)C(C(=O)NCc1ccco1)C(c1cccs1)N(C)C2=O (configuration not stated),0.4%,1.6e-08,i,i,-0.7%
CCCC12CN(C(=O)c3ccc(OC)cc3)CC(C)(CN(C(=O)c3ccc(OC)cc3)C1)C2=O,27.2%,1e-09,i,i,-1.7%
Cc1ccc(/C(O)=C2\C(=O)C(=O)N(c3cc(C)on3)C2c2cccc(Br)c2)cc1 (configuration not stated),?,3.58e-08,i,i,-1.3%
CCN(CC)C(=O)Cn1nnc(-c2ccc(C)o2)n1,0.1%,4.42e-08,i,i,-1.4%
CCOC(=O)N1CCN(c2nc(-c3ccc(F)cc3)cs2)CC1,21.4%,3.06e-08,i,i,-0.2%
CCCOc1ccc(/C(O)=C2/C(=O)C(=O)N(CCN(C)C)C2c2ccncc2)cc1 (configuration not stated),.,2.1e-09,i,i,.
COc1ccc(OCCC(=O)Nc2cc(C)on2)cc1,9.1%,9e-09,i,i,-0.2%

4 structures out of the list, sorted by number of heavy atoms, rising.
Compound,TSHR agonist,A647 autofl,Resorufin autofl,A488 autofl,AID923
COc1ccc(OCCC(=O)Nc2cc(C)on2)cc1,9.1%,9e-09,i,i,-0.2%
CC(=O)OCC1OC(C#Cc2ccc(Cl)cc2)C=CC1OC(C)=O (configuration not stated),6.8%&-1.8%[11.4 µM],.,.,.,2.6%&-0.9%[11.5 µM]
Cc1ccc(/C(O)=C2\C(=O)C(=O)N(c3cc(C)on3)C2c2cccc(Br)c2)cc1 (configuration not stated),?,3.58e-08,i,i,-1.3%
COc1cc2c(cc1OC)C(C(=O)NCc1ccco1)C(c1cccs1)N(C)C2=O (configuration not stated),0.4%,1.6e-08,i,i,-0.7%
